VDR inh: Inhibitors of the vitamin D receptor (VDR): qHTS; VDR-SRC2-3 peptide fluorescence polarization, 2 h; hit rate 0.93% among 400,000; Potency, µM, inactives show max response, negative = inhibition, usual class: inhibitors; active = well fitted inhibition curve with a large enough effect; inconclusive = small, poorly fitted or top-dose-only effect, or another doubt; inactive = no such curve, though single readings can be large or run the other way; note: series mostly up to about 120 µM
Target sequence (P11473 whole entry, looked up): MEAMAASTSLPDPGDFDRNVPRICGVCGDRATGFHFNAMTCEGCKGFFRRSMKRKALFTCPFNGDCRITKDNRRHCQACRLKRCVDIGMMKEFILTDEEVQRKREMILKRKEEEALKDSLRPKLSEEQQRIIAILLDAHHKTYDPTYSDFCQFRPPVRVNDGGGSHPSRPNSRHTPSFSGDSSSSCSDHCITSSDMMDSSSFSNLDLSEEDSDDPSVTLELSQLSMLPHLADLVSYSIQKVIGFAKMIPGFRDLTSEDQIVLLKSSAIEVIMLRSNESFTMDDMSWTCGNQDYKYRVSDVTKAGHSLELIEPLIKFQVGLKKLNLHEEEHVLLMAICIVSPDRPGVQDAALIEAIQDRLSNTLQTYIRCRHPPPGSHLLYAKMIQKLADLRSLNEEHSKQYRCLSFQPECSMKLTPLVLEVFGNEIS
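The screen uses fluorescence polarization to detect compounds that interfere with recruitment of the SRC2-3 coactivator peptide to VDR; plates are read after 2 h at room temperature.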
The depositor's hits bear a star; ? = inconclusive; & = joins results of further samples. % is set by controls: 0 for no effect and ±100 for the full control effect; potency is the fitted concentration of half-maximal effect.

VDR inh	molecule
-11.8%	O=C1CN(c2cc(Cl)cc(Cl)c2)C(=O)CN1/N=C/c1cccnc1
-7.6%	COc1cc(C(=O)NCc2ccc3c(c2)CCN3C(=O)c2ccncc2)cc(OC)c1OC
-8.7%	CCCc1cc(C(=O)N2CCN(S(=O)(=O)c3ccc(OC)c(OC)c3)CC2)cs1
-8.7%	Cc1ccc(N2CCN(S(=O)(=O)N3CCCCC3)CC2)c(C)c1
20.3%	CSc1ccccc1C(=O)NCc1ccc(S(N)(=O)=O)cc1
1.7%	CC(C)c1ccc(NC(=O)Cn2c(=O)oc3ccccc32)cc1
1.9%	COc1cc(N2C(=O)c3ccccc3C2=O)c(Cl)cc1C(=O)OCC(=O)N1CCOCC1
-9.4%	Cn1c(=O)[nH]c(=O)c2c1nc(N1CCCCC1)n2CCOc1ccccc1
-1.7%	COc1ccc(C2=NOC(C(=O)NCc3ccccn3)C2)cc1OC (stereo not given)
18.1%	O=C(CC(c1cccs1)N1Cc2ccccc2C1=O)Nc1ccc(F)c(F)c1 (stereo not given)
-7.2%	Cc1cc(C)nc(NS(=O)(=O)c2ccc(NC(=O)c3nc(SC(C)C)ncc3Cl)cc2)n1
-5.2%	COc1ccc(CC(=O)N2CCN=C2SCc2ccc([N+](=O)[O-])cc2)cc1
0.5%	O=C(Nc1ccccc1C(=O)N1CCOCC1)C1CCCO1 (stereo not given)
-27.1%	COc1cc([N+](=O)[O-])ccc1NC(=O)Cc1ccccc1
5.2%	COc1ccc(-c2nn(CC(=O)N(C)C)c(=O)c3ccccc23)cc1
14.9%	COC(=O)c1scc(-c2ccc(C)cc2)c1S(=O)(=O)N1CCN(c2ccc(OC)cc2)CC1
-7.9%	CCOC(=O)c1ccc(Oc2nc(NC)nc(Nc3ccccc3)n2)cc1
-14.8%	COc1cc(-c2n[nH]c(=S)n2-c2ccc(Br)cc2)cc(OC)c1OC
-2.4%	O=C(NNc1ccccc1)C(=O)N1CCCCC1
-1.2%	COc1ccc(-c2c3c(=O)n(C)c(=O)n(C)c3c3c(-c4cccc(C)c4)nc4ccccc4n23)cc1
-16.3%	CCOC(=O)c1ccc(OCc2nc(-c3cccs3)no2)cc1
14.3%	COc1ccc(CCNC(=O)COC(=O)CNS(=O)(=O)c2ccc(SC)c([N+](=O)[O-])c2)cc1
-2.7%	CN(C)CCOC(=O)/C(=C/c1cn(C)c2ccccc12)NC(=O)c1ccccc1
20.9%	NS(=O)(=O)c1ccc(CCNC(=O)c2cc(-c3ccc(Br)cc3)nc3ccccc23)cc1

Reprinted at random: 4 records from the list, in no set order.
VDR inh	molecule
-9.4%	Cn1c(=O)[nH]c(=O)c2c1nc(N1CCCCC1)n2CCOc1ccccc1
-7.6%	COc1cc(C(=O)NCc2ccc3c(c2)CCN3C(=O)c2ccncc2)cc(OC)c1OC
-27.1%	COc1cc([N+](=O)[O-])ccc1NC(=O)Cc1ccccc1
-1.7%	COc1ccc(C2=NOC(C(=O)NCc3ccccn3)C2)cc1OC (stereo not given)

Some of these compounds in order of formula weight, lowest first:
VDR inh	molecule
-2.4%	O=C(NNc1ccccc1)C(=O)N1CCCCC1
-27.1%	COc1cc([N+](=O)[O-])ccc1NC(=O)Cc1ccccc1
-8.7%	Cc1ccc(N2CCN(S(=O)(=O)N3CCCCC3)CC2)c(C)c1
-5.2%	COc1ccc(CC(=O)N2CCN=C2SCc2ccc([N+](=O)[O-])cc2)cc1
-1.2%	COc1ccc(-c2c3c(=O)n(C)c(=O)n(C)c3c3c(-c4cccc(C)c4)nc4ccccc4n23)cc1
14.3%	COc1ccc(CCNC(=O)COC(=O)CNS(=O)(=O)c2ccc(SC)c([N+](=O)[O-])c2)cc1

Next entries:
VDR inh	molecule
7.9%	N/C(=N\OC(=O)c1ccc(Cl)cc1)c1ccccn1
-6.4%	O=S(=O)(CCS(=O)(=O)c1ccccc1)c1ccccc1
-5.5%	CC(=O)Nc1ccc2nc(CN3CCN(Cc4ccc(F)cc4)C(CCO)C3)ccc2c1 (stereo not given)
12.9%	O=C(NC1CCSc2ccccc21)c1ccc(F)cc1 (stereo not given)
13.3%	COc1ccc(-c2noc(CC(=O)N(C)c3cc(Cl)c(OC)cc3OC)n2)cc1
0.6%	CN(C(=O)c1ccc(Cl)cc1)c1ccc(OCC(=O)Nc2cc(C(=O)O)ccc2Cl)cc1
-2.0%	CCOC(=O)N1CCN(CC(O)c2ccccc2)CC1 (stereo not given)
6.8%	CCOC(=O)N1CCN(S(=O)(=O)c2ccc(C(=O)Nc3nc4c(s3)CC(C)CC4)cc2)CC1 (stereo not given)
2.4%	CCc1cc(C)cc(OCCOc2ccccc2/C=N/NC(C)=O)c1
-4.2%	CC1(C)CC(=O)C2=C(C1)N(Cc1ccc(F)cc1)C(=O)C2(NC(=O)c1cccnc1)C(F)(F)F (stereo not given)
5.7%	CCN(CC)CCOc1ccc(C=NNc2nc3c([nH]2)c(=O)n(C)c(=O)n3C)cc1
-17.2%	CC1(c2ccccc2Cl)NC(=O)N(CC(=O)Nc2ccccc2OC(F)F)C1=O (stereo not given)
0.5%	CC(=O)Nc1c(C)nn(-c2ccccc2)c1N1CCC(C(=O)Nc2cc(Cl)ccc2C)CC1
-18.3%	c1csc(C2CCCN2c2nc3nonc3nc2NC2CC2)n1 (stereo not given)
-14.5%	COc1cc(-c2nc3ccccn3c2Nc2ccccc2C)ccc1O
-11.6%	CCc1c(O)nc(SCC(=O)Nc2ccccc2C)n(-c2ccc(C)cc2)c1=O
4.8%	O=C(COc1ccc(C2SCCS2)cc1)Nc1ccc(Cl)cc1
-9.5%	CC(C)c1ccc(S(=O)(=O)N2CCC(C(=O)NCc3ccco3)CC2)cc1
-16.8%	Cc1c(OCC(=O)N2C[C@H]3C[C@@H](C2)c2cccc(=O)n2C3)ccc2c3c(c(=O)oc12)CCCC3
-24.5%	Cc1ccc(S(=O)(=O)N2CCc3ccccc3C2)cc1
-12.1%&-19.3%	Cc1cc(C)cc(N(CC(=O)NCc2ccccc2Cl)S(=O)(=O)c2c(C)[nH]c(=O)[nH]c2=O)c1
6.0%	Cc1c(NC2=NC(C)(C)Cc3ccccc32)c(=O)n(-c2ccccc2)n1C
-13.3%	O=C(CSc1nc(O)cc(=O)n1-c1ccccc1)Nc1ccc2c3c(cccc13)CC2
-8.3%	COc1ccccc1OCCNC(=O)c1cccs1
-5.2%	CC1Cc2cc(S(=O)(=O)NCc3ccc(N(C)C)cc3)ccc2N1C(=O)C1CCC1 (stereo not given)
14.2%	COc1ccc(CN(C)C(=O)c2ccc(OCC(=O)N3CCOCC3)c(OC)c2)cc1
-3.6%	c1nc(NCc2ccc3c(c2)OCO3)c2cc(-c3ccoc3)ccc2n1
1.8%	O=C(c1ccc2c(c1)N(Cc1ccccc1F)C(=O)c1ccccc1S2(=O)=O)N1CCc2ccccc21
-5.3%	Nc1ncnc(N)c1N=Nc1ccccc1
-5.3%	CC1CCCN(C2=C(NS(=O)(=O)c3ccc(Cl)cc3)C(=O)c3ccccc3C2=O)C1 (stereo not given)
14.3%	O=C(COc1ccc(Cl)cc1)Nc1ccc2c(c1)C(=O)NC2=O
-7.3%	CCOc1cc(CO)cc(Br)c1OCC(=O)O
0.0%	CC1CCN(c2ccc(NC(=O)c3cccnc3)cc2)CC1
-12.8%	CCCc1cc(C(=O)N2CCC(n3nccc3NC(=O)c3ccc(OC)cc3)CC2)no1
3.1%	Cc1ccc(-n2ncc(C(=O)NCc3ccccn3)c2C2CCN(C(=O)OC(C)(C)C)CC2)cc1C
9.6%&-12.2%	COc1ccccc1NC(=O)Cn1nnc(C(=O)NCc2ccc3c(c2)OCO3)c1N
-14.1%	COc1ccc(CNC(=O)COC(=O)c2cccnc2Nc2cccc(C(F)(F)F)c2)cc1
-9.6%	O=C(c1ccco1)N1CCN(C(=O)C2CCN(S(=O)(=O)c3cccc4nsnc34)CC2)CC1
-15.0%	CC1CCN(c2ccc(C(=O)NCc3ccco3)cc2[N+](=O)[O-])CC1
2.1%	O=C(Nc1cnc2ccccc2c1)c1ccncc1
9.7%	COC(=O)c1sccc1NC(=O)c1c(C)cc(=O)oc1C
23.4%	CCOc1ccc(-n2c(SCC(=O)Nc3cc(C)on3)nc3c(c2=O)SCC3)cc1
-1.4%&-7.0%	CCCCOc1ccc(Cn2c(=O)oc3ccccc32)cc1
4.1%	CCOCCCNC(=O)c1ccc(CS(=O)(=O)Cc2ccccc2F)o1
-11.9%	CCc1ccccc1NC(=O)c1cc(-c2ccc(F)cc2)on1
-9.3%	Cc1ccc(NC(=S)NC(=O)C2CCCC2)c(Br)c1
-0.2%	COc1ccccc1N1CCN(C(=O)c2c(C)noc2C)CC1
0.2%	O=C(COC(=O)c1ccccc1O)NC(=O)c1ccc(OC(F)F)cc1
?	C[C@@H]1C[C@](C)(C(=O)c2ccco2)C=C1c1ccco1
-12.6%	COc1ccc(NC(=O)CN2C(=O)/C(=C3\SC(=S)N(CCC(=O)O)C3=O)c3ccccc32)cc1
7.7%	COc1ccccc1/C=C/c1nc(C#N)c(N2CCN(C)CC2)o1
-3.8%	COc1cccc(-c2nc(CS(=O)(=O)CC(=O)N3CCOCC3)c(C)o2)c1
?	O=[N+]([O-])c1cc([N+](=O)[O-])c2c(=Nc3ccccc3)n(-c3ccccc3)n(O)c2c1
1.8%	COc1ccc(CCNc2ccc(C)cc2)cc1
-5.1%	O=[N+]([O-])c1ccc(-n2nnnc2CN2CCOCC2)cc1
-6.5%	CCSc1ccc2nnc(-c3cccs3)n2n1

Continuation:
VDR inh	molecule
-12.8%	Cc1cccc(NC(=O)[C@@H]2CCCN2C(=O)OC(C)(C)C)c1
-4.0%	COc1ccc(C(C)=O)c(Oc2ccc(S(=O)(=O)N3CCOCC3)cn2)c1
0.6%	COc1ccc(NC(=O)CN(C)C(=O)C(CCSC)NC(=O)c2ccccc2)cc1 (stereo not given)
4.8%	Cc1nc2oc3ccccc3c(=O)c2cc1C(=O)O
-6.9%	COc1ccc(-c2nc(C#N)c(NC(C)C)o2)cc1
3.2%	COC(=O)c1oc2ccc(Cl)cc2c1NC(C)=O
-5.8%	CCOc1cc(/C=N\NC(=O)Cn2nnc3ccccc32)ccc1O
-3.4%	O=C(Nc1ccc(F)c(Cl)c1)Nc1csc2ccccc12
25.5%	COc1ccc(-c2nnc(SCC(=O)c3cccs3)o2)c(OC)c1
-3.8%	COc1ccc(C2=C(C(C)=O)Sc3nnc(-c4ccccc4)n3N2C(C)=O)cc1
-8.5%	Cc1ccc2c(c1C)NC(=O)CC(c1ccccc1O)=N2
?	COc1ccc(CN2CN(C3CCCC3)CSC2=S)cc1
2.8%	COc1ccc(N2CCN(CC(=O)Nc3cc(C)cc(C)c3)CC2)cc1
-11.6%	CCOc1ccc(/C(CCC(=O)O)=N/NC(=O)c2cccc(S(=O)(=O)Nc3ccccc3OC)c2)cc1
17.9%	COc1ccc(NC(=O)C2(c3cccs3)CCOCC2)cc1Cl
-0.9%	CCOc1cc(NS(=O)(=O)c2ccc(OC)cc2)c(OCC)cc1NC(=O)c1ccco1
-7.7%	COc1cc([N+](=O)[O-])ccc1NC(=O)C[n+]1cccc(C(C)=O)c1
-23.5%&-0.4%	Cc1cccc(NC(=O)CSc2nc3c([nH]c4ccccc43)c(=O)n2C)c1
-0.8%	O=C(Nc1ccc(N2CCOCC2)c([N+](=O)[O-])c1)c1ccco1
-1.7%	CCOC(=O)C1CCCN(c2c(NCCN3CCCCC3C)c(=O)c2=O)C1 (stereo not given)
2.4%	Cc1cccc(NC(=O)c2cc(-c3cc(C)ccc3O)n[nH]2)c1
-0.5%	CCC1CCCCN1CCCNC(=O)Cn1ncc2c([nH]c3ccc(C)cc32)c1=O (stereo not given)
-19.8%	O=C(c1nc(-c2ccccc2)n(-c2ccccc2)n1)N1CCN(S(=O)(=O)c2ccccc2)CC1
-2.4%	COC(=O)C1=C(C)N(Cc2ccco2)C(=O)N[C@@H]1c1cccc(C(F)(F)F)c1
28.2µM*	O=C(O)C1CCC(NSc2ccccc2[N+](=O)[O-])CC1 (stereo not given)
-10.9%	CCCCOc1ccc(C(=O)N/C(=C/C=C/c2ccccc2)C(=O)NC)cc1
-21.1%	Cc1cc(Br)ccc1SCC(=O)NCC(c1ccco1)N1CCCCC1 (stereo not given)
-12.0%	O=C(Nc1cccc(S(=O)(=O)N2CCCCC2)c1)c1cc2ccccc2o1
-10.6%	CCc1cccc(C)c1NC(=O)CSc1n[nH]c(-c2ccccc2)n1
4.3%	CCOc1ccc(NC(=O)CCC(=O)N/N=C/c2ccc([N+](=O)[O-])s2)cc1
20.8%	Cc1cccc(-n2ncc(C(=O)N3CCN(c4ccc(C)cc4C)CC3)c2C2CCN(C(=O)OC(C)(C)C)CC2)c1
-17.5%	CC(C)(C)OC(=O)NCCCCCNC(=O)c1[nH]cnc1C(=O)Nc1ccccc1
5.9%	Cc1cccc(C)c1NC(=O)C(c1ccc(Cl)cc1Cl)N1CCCCC1 (stereo not given)
3.9%	CN(C(=O)C1CCN(S(=O)(=O)c2ccccc2[N+](=O)[O-])CC1)C1CCCCC1
-7.7%	Cc1ccc(-c2nc3ncccn3c2Nc2ccccc2C)o1
-0.3%	Cc1ccc2occ(C(c3nnnn3Cc3ccccc3)N3CCOCC3)c(=O)c2c1 (stereo not given)
-8.7%	CN(C)/C=C/C(=O)c1cc(N2CCOCC2)ccc1[N+](=O)[O-]
?	COc1ccc(C(=S)N2CCCCCC2)cc1
-15.0%	C#CCOCCOCCOCCNc1nc(N2CCN(C(=O)[C@H](CO)n3cc([C@@H](N)C(C)C)nn3)CC2)nc(N2CCN(C(=O)[C@H](CCCCN)n3cc([C@@H](N)[C@H](C)CC)nn3)CC2)n1
-20.7%	CCCCn1c(N)c(N(CCOC)C(=O)CSc2ccccc2C)c(=O)[nH]c1=O
9.2%	COc1ccc(N=CC2=C(O)c3ccccc3C2=O)c(OC)c1
2.2%	CCOc1ccc(C(=O)OCC(=O)NC2CCCC2)cc1OCC
1.7%	CCCCOc1nc2ccccc2nc1C(C#N)S(=O)(=O)c1ccccc1 (stereo not given)
-4.8%	O=C(CSc1nnc2ccc(-c3ccccn3)nn12)NCC1CCCO1 (stereo not given)

Screening results from PubChem BioAssay.

The list is partial; rates above refer to the full screens.
